Six1-Eya2 inh: blocks human Six1 binding to Eya2 | activity change, % (test concentration not listed) | Q15475+O00167 | 360,000 tested, 0.56% active | AlphaScreen GST-Six1/His-Eya2 binding, biochemical; stronger effect = lower value; control for the full effect not named in the record; in the data active = activity change below about -65%; inconclusive = about -30% to -65%; inactive = above about -30%; further: compound concentration not given in the record
Target sequence (O00167 whole entry, looked up): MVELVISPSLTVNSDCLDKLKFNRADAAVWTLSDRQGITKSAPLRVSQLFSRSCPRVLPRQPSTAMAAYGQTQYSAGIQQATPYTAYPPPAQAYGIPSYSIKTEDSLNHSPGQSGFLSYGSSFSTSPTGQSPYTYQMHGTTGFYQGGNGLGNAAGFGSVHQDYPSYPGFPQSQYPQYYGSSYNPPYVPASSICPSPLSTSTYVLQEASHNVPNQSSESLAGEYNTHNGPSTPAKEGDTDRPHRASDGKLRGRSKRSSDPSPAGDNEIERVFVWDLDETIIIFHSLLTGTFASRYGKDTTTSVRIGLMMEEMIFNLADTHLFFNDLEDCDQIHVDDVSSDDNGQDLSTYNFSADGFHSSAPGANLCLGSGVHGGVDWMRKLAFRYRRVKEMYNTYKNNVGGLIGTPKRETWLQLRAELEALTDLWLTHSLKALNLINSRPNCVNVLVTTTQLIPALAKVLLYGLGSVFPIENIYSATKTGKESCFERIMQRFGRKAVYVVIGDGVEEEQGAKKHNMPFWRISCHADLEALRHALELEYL
Target sequence (Q15475 whole entry, looked up): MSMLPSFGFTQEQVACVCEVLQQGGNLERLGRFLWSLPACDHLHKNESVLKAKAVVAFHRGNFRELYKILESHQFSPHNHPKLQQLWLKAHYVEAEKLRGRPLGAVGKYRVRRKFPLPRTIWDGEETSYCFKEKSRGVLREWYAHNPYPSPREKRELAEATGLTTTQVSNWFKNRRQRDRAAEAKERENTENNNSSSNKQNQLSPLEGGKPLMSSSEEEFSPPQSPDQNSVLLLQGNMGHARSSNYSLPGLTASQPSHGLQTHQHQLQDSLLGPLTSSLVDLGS
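Homogeneous AlphaScreen proximity assay pairing GST-Six1 with His-tagged Eya2 (added as 5X mix: 250 nM and 500 nM) in 50 mM Tris pH 8.0, 300 mM NaCl, 1 mM TCEP. Glutathione donor and nickel acceptor beads; 1 h, 37 °C, dark.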
CtBP-E1A inh: inhibitors of CtBP/E1A interaction; AlphaScreen GST-E1A/His-CtBP binding, 1536-well; stronger effect = lower value; control for the full effect not named in the record; activity change, % (concentration not given with the values); 340,000 tested, 0.49% active; in the data active means activity change below about -65%; inconclusive means about -30% to -65%; inactive means above about -30%
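GST-E1A and His-tagged CtBP (125 nM each as 5X stock) were preincubated with pin-transferred compound for 2 h at 37 °C in the dark, then glutathione donor and nickel acceptor beads were added for 1 h before AlphaScreen reading.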
* marks the source's active call; other numbers are inactive results. On the % scale 0 is the no-effect control and ±100 the full control effect.

Six1-Eya2 inh,CtBP-E1A inh,smiles
-1,-25,COCCNC(=O)c1cc(-c2ccccc2)sc1N
-6,6,CO[C@@H]1CN(C)C(=O)c2ccc(NC(=O)C3CCC3)cc2OC[C@H](C)N(CC2CCCCC2)C[C@H]1C
2,-1,COc1ccccc1S(=O)(=O)N[C@@H]1CC[C@@H](CCn2cc(C3CC3)nn2)O[C@@H]1CO
-21,-3,Cc1cccc(C)c1NC(=O)C1C(c2ccc3c(c2)OCO3)=Nc2ccccc2N1C(=O)c1cccc2ccccc12 (stereo unspecified)
-2,-18,CCOC(=O)[C@]12CCCC=C1N(CCC1=CCCCC1)C(=O)[C@H](CC(=O)N1CCCCC1)C2
-6,0,Nc1sc(-c2ccccc2)cc1C(=O)NCCN1CCOCC1
-4,0,COc1ccccc1-n1cc(CN2CCc3onc(-c4ccc(Br)cc4)c3C2=O)nn1
7,1,Cc1ccc(S(=O)(=O)N2[C@@H](CCO)OC[C@H]2C(C)C)cc1
0,0,Cc1ccc(S(=O)(=O)N2C(c3ccccc3)CC(=O)C3CN(S(=O)(=O)c4ccc(Cl)cc4)C(c4ccccc4)CC32)cc1 (stereo unspecified)
-11,-1,CO[C@@H]1CN(C)C(=O)c2cc(NC(=O)NC3CCCCC3)ccc2OC[C@@H](C)N(CCc2ccccc2)C[C@@H]1C
3,-1,CCCN1C[C@@H](C)[C@@H](OC)CN(C)C(=O)c2ccc(NC(=O)c3cccc(F)c3)cc2OC[C@H]1C
1,1,C#CCNC(=O)C[C@@H]1C[C@@]2(C(=O)OC)CC(C)(C)CC=C2N(Cc2ccco2)C1=O
2,2,O=C(C(=O)N1CCN(c2ccccc2)CC1)c1ccccc1
5,10,CC1(C(=O)NCc2ccccc2)CSCC(=O)N1Cc1cccs1 (stereo unspecified)
1,0,Cc1ccc(S(=O)(=O)N2[C@H](CC(=O)Oc3ccccc3)OC[C@@H]2C(C)C)cc1
-14,2,COC(=O)[C@@]12C[C@@H](CC(=O)NCc3cccs3)C(=O)N(Cc3cccc4ccccc34)C1=CCC(C)(C)C2
8,8,CCC(=O)Nc1ccc2c(c1)OC[C@@H](C)N(Cc1cccc(F)c1)C[C@@H](C)[C@@H](OC)CN(C)C2=O
9,0,CC(C)CN1C(=O)CSCC1(C)C(=O)Nc1ccc2c(c1)OCCO2 (stereo unspecified)
-2,3,Cc1ccccc1CN1C(=O)CSCC1(C)C(=O)NC(C)C (stereo unspecified)
47,16,O=C(Nc1ccc2c(c1)OCCO2)C(c1ccccc1)n1c(=O)c(-c2cc3ccccc3[nH]2)nc2ccccc21 (stereo unspecified)
10,3,CC(C)NC(=O)C1(C)CN(S(C)(=O)=O)CC(=O)N1Cc1ccco1 (stereo unspecified)
-1,-3,CC(C(=O)NC(C)(C)C)n1c(-c2ccc3c(c2)OCO3)nc2ccccc21 (stereo unspecified)
-6,-16,COC(=O)[C@@]12C[C@@H](CC(=O)NCc3cccc4ccccc34)C(=O)N(Cc3ccccc3)C1=CCC(C)(C)C2
5,3,O=C1Nc2ccccc2-n2nnnc2C1N1CCN(c2ccccn2)CC1 (stereo unspecified)

Of the compounds above, 4 contain a thiophene ring, fused or not.
Six1-Eya2 inh,CtBP-E1A inh,smiles
-1,-25,COCCNC(=O)c1cc(-c2ccccc2)sc1N
-6,0,Nc1sc(-c2ccccc2)cc1C(=O)NCCN1CCOCC1
5,10,CC1(C(=O)NCc2ccccc2)CSCC(=O)N1Cc1cccs1 (stereo unspecified)
-14,2,COC(=O)[C@@]12C[C@@H](CC(=O)NCc3cccs3)C(=O)N(Cc3cccc4ccccc34)C1=CCC(C)(C)C2

Next compounds.
Six1-Eya2 inh,CtBP-E1A inh,smiles
-4,-1,CCCCCCCCN1CC(Cc2cc3ccccc3c3ccccc23)N(c2ccccc2)c2ccccc2C1=O (stereo unspecified)
-2,1,CCOC(=O)[C@]12CCCC=C1N(CCc1ccc(OC)c(OC)c1)C(=O)[C@H](CC(=O)NCCCN1CCCC1=O)C2
5,7,COC(=O)[C@]12CCCCC=C1N(CCc1ccc(OC)c(OC)c1)C(=O)[C@H](CC(=O)N1CCOCC1)C2
-21,14,CSCCC(C(=O)NC1CCCC1)n1c(-c2ccncc2)nc2ccccc21 (stereo unspecified)
5,0,CCCCCNC(=O)C(c1ccnc2ccccc12)n1c(=O)c(-c2ccccc2)nc2ccccc21 (stereo unspecified)
-4,4,CCC(=O)N[C@H]1C=C[C@H](CC(=O)OC)O[C@@H]1CO
34,0,Cc1cccc(C)c1NC(=O)C1(C)CSCC(=O)N1CC(F)(F)F (stereo unspecified)
-10,2,CC(=O)N1CCC(C(=O)N2c3ccccc3N=C(c3ccc4c(c3)OCO4)C2C(=O)Nc2c(C)cccc2C)CC1 (stereo unspecified)
45,21,O=C(NCc1ccccc1)C(c1ccccc1F)n1c(=O)c(-c2cc3ccccc3[nH]2)nc2ccccc21 (stereo unspecified)
-4,-8,Nc1sc2c(c1C(=O)NCCc1ccccc1)CCCC2
13,-2,O=C(NCC[C@@H]1CC[C@@H](NS(=O)(=O)c2ccccc2)[C@@H](CO)O1)c1cc(Cl)cc(Cl)c1
-1,-11,CC1(C(=O)Nc2ccc3c(c2)OCCO3)CN(S(C)(=O)=O)CC(=O)N1CCc1ccccc1 (stereo unspecified)
-7,-3,COC(=O)[C@@]12C[C@@H](CC(=O)N3CCSCC3)C(=O)N(CCc3ccc(OC)c(OC)c3)C1=CCC(C)(C)C2
0,-1,COc1ccc(C2=Nc3ccccc3N(C(=O)Cc3cc(OC)cc(OC)c3)C2C(=O)NC(C)C)cc1 (stereo unspecified)
-11,0,O=C1c2c(-c3ccc(Br)cc3)noc2CCN1Cc1cn(-c2ccc(Cl)cc2)nn1
-18,-14,CCOC(=O)[C@]12CCCC=C1N(Cc1ccccc1)C(=O)[C@H](CC(=O)NCc1ccc(OC)c(OC)c1)C2
5,-10,Cc1ccc(S(=O)(=O)N2[C@@H](CO)CO[C@H]2CC(=O)c2cccs2)cc1
4,0,CCOC(=O)[C@]12CCCC=C1N(Cc1ccccc1)C(=O)[C@H](CC(=O)N1CCCCCC1)C2
20,0,Cc1cccc(C)c1NC(=O)C(c1ccccc1F)n1c(=O)c(-c2ccccc2)nc2ccccc21 (stereo unspecified)
-3,0,O=C(NCc1cccs1)C1C(=O)Nc2ccccc2C(=O)N1Cc1ccccc1 (stereo unspecified)
-5,-2,O=C(C[C@@H]1CC[C@H](NS(=O)(=O)c2ccccc2F)[C@@H](CO)O1)NCCCN1CCOCC1
15,-19,Cc1ccc(S(=O)(=O)N2[C@H](CC(=O)c3cccs3)OC[C@@H]2C(C)C)cc1
-7,1,CC(C)c1cc(C(=O)NCc2ccc(F)cc2)c(N)s1
-3,0,COc1ccc(OC)c(CN2C(=O)CN(S(C)(=O)=O)CC2(C)C(=O)Nc2c(C)cccc2C)c1 (stereo unspecified)

Brought forward from above: 5 compounds, followed by the next part.
Six1-Eya2 inh,CtBP-E1A inh,smiles
-3,0,O=C(NCc1cccs1)C1C(=O)Nc2ccccc2C(=O)N1Cc1ccccc1 (stereo unspecified)
-5,-2,O=C(C[C@@H]1CC[C@H](NS(=O)(=O)c2ccccc2F)[C@@H](CO)O1)NCCCN1CCOCC1
15,-19,Cc1ccc(S(=O)(=O)N2[C@H](CC(=O)c3cccs3)OC[C@@H]2C(C)C)cc1
-7,1,CC(C)c1cc(C(=O)NCc2ccc(F)cc2)c(N)s1
-3,0,COc1ccc(OC)c(CN2C(=O)CN(S(C)(=O)=O)CC2(C)C(=O)Nc2c(C)cccc2C)c1 (stereo unspecified)
-10,0,Cc1ccc(N2CCN(C3C(=O)Nc4ccccc4-n4nnnc43)CC2)cc1 (stereo unspecified)
-2,6,Cc1cccc(C)c1NC(=O)C(C1CC1)n1c(=O)c(-c2ccccc2)nc2ccccc21 (stereo unspecified)
-1,3,CC1(C(=O)NCc2ccccc2)CSCC(=O)N1CCCN1CCOCC1 (stereo unspecified)
14,-9,CCCCNC(=O)C(NC(=O)c1cnc(C)cn1)C(=O)c1ccccc1 (stereo unspecified)
9,-16,O=C(C[C@H]1C=C[C@@H](NC(=O)c2ccncc2)[C@@H](CO)O1)NCC1CC1
-1,4,COc1ccc(NC(=O)C(c2ccc(C(F)(F)F)cc2)n2c(=O)c(-c3ccco3)nc3ccccc32)cc1 (stereo unspecified)
4,2,O=C(NCC[C@H]1CC[C@H](NS(=O)(=O)c2ccc(F)cc2)[C@@H](CO)O1)c1ccc2c(c1)OCO2
0,4,Cc1cnc(-c2nc3ccccc3n2C(C(=O)Nc2c(C)cccc2C)C2CC2)cn1 (stereo unspecified)
1,-9,CC1(C(=O)Nc2ccc3c(c2)OCCO3)CN(S(C)(=O)=O)CC(=O)N1CCc1ccccc1F (stereo unspecified)
5,1,CC1(C(=O)Nc2ccc3c(c2)OCCO3)CN(S(C)(=O)=O)CC(=O)N1Cc1cccs1 (stereo unspecified)
24,10,O=C(NC1CCCCC1)C(c1ccnc2ccccc12)n1c(=O)c(-c2cc3ccccc3[nH]2)nc2ccccc21 (stereo unspecified)
-2,5,COC(=O)C[C@@H]1C=C[C@@H](NS(=O)(=O)c2cccc(OC)c2)[C@@H](CO)O1
-1,-1,Cn1cnc(S(=O)(=O)N2C[C@@H](O)COC[C@@H]3O[C@H](CC(=O)NC4CCC4)CC[C@H]32)c1
-5,8,O=C(NC1CCCCC1)C(c1ccccc1)n1c(=O)c(-c2ccco2)nc2ccccc21 (stereo unspecified)
-6,-1,Cc1cc2c(cc1C)-n1nnnc1C(N(Cc1ccccc1)Cc1ccccc1)C(=O)N2 (stereo unspecified)
-24,-4,CSCCC(C(=O)Nc1c(C)cccc1C)n1c(-c2cc(C)cs2)nc2ccccc21 (stereo unspecified)
-1,4,COc1cccc(OC)c1C(=O)NCCNc1nc2cc(C)cc(C)c2cc1C#N
6,-15,CO[C@H]1CN(C)C(=O)c2ccc(NS(=O)(=O)c3ccccc3F)cc2OC[C@H](C)NC[C@@H]1C
-2,-1,C=CCC(NC(=O)N(C)C)(C(C)=O)C(=O)OC (stereo unspecified)
-4,5,COC(=O)[C@]12CCCCC=C1N(Cc1ccc3c(c1)OCO3)C(=O)[C@H](CC(=O)NCCCN1CCCC1=O)C2
-5,3,CCCCCCCCN1C(=O)[C@H](CC(=O)NCc2ccc(C)o2)C[C@@]2(C(=O)OCC)CCC=C12
52,-11,CC(C)(C)NC(=O)C(c1ccncc1)n1c(=O)c(-c2cc3ccccc3[nH]2)nc2ccccc21 (stereo unspecified)
7,21,Cc1cccc(C)c1NC(=O)C(c1ccnc2ccccc12)n1c(=O)c(-c2ccccc2)nc2ccccc21 (stereo unspecified)
7,0,Cc1cccc(C)c1NC(=O)C1(C)CN(S(C)(=O)=O)CC(=O)N1Cc1ccc2c(c1)OCO2 (stereo unspecified)

Random excerpt: two compounds from above.
Six1-Eya2 inh,CtBP-E1A inh,smiles
6,-15,CO[C@H]1CN(C)C(=O)c2ccc(NS(=O)(=O)c3ccccc3F)cc2OC[C@H](C)NC[C@@H]1C
-4,5,COC(=O)[C@]12CCCCC=C1N(Cc1ccc3c(c1)OCO3)C(=O)[C@H](CC(=O)NCCCN1CCCC1=O)C2

(listing goes on)
Six1-Eya2 inh,CtBP-E1A inh,smiles
-11,-18,COc1ccc(NC(=O)c2cc(-c3sc(NC(=O)c4ccccc4)nc3C)n(Cc3ccccc3)n2)cc1
7,-6,COC(=O)C(C(=O)OC)c1ccccc1NC(=O)OCc1ccccc1
-4,-4,Cc1cccc(C)c1NC(=O)C1(C)CSCC(=O)N1CCc1ccccc1F (stereo unspecified)
-4,-21,Cc1cccc(C)c1NC(=O)C(c1ccccc1F)n1c(=O)c(-c2ccco2)nc2ccccc21 (stereo unspecified)
-10,-2,CSCCC(C(=O)Nc1c(C)cccc1C)n1c(-c2ccc(-c3ccccc3)cc2)nc2ccccc21 (stereo unspecified)
1,6,COC(=O)C[C@@H]1CC[C@H](NC(=O)Nc2ccc(OC)cc2)[C@@H](CO)O1
7,3,O=C(C[C@H]1CC[C@@H]2[C@H](COC[C@H](O)CN2C(=O)c2cnccn2)O1)NCc1ccc(Cl)cc1
11,-16,Cc1ccccc1CN1C(=O)CN(S(C)(=O)=O)CC1(C)C(=O)Nc1c(C)cccc1C (stereo unspecified)
6,-19,Cc1ccccc1S(=O)(=O)N1C(c2ccc(Cl)cc2)CC=C(C(=O)O)C1c1cccc(Cl)c1 (stereo unspecified)
6,-22,COc1ccc(S(=O)(=O)N2C[C@@H](O)COC[C@@H]3O[C@H](CC(=O)NCCCN4CCOCC4)CC[C@H]32)cc1
-9,-1,COC(=O)[C@@]12C[C@@H](CC(=O)N3CCN(C(=O)c4ccco4)CC3)C(=O)N(Cc3cccc4ccccc34)C1=CCC(C)(C)C2
-6,2,CO[C@@H]1CN(C)C(=O)c2cc(NC(=O)Nc3cc(F)ccc3F)ccc2OC[C@H](C)N(C(=O)c2ccccn2)C[C@@H]1C
-3,-23,COC(=O)[C@]12CCCCC=C1N(CCc1ccc(OC)c(OC)c1)C(=O)[C@H](CC(=O)N1CCSCC1)C2
0,1,CCCCNC(=O)c1nc(C2CCN(S(=O)(=O)c3ccc(C(F)(F)F)cc3)CC2)oc1-c1ccccc1
-16,0,COC(=O)[C@@]12C[C@@H](CC(=O)N3CCCCC3)C(=O)N(Cc3ccc4c(c3)OCO4)C1=CCC(C)(C)C2
-2,-4,COC(=O)[C@]12CCCCC=C1N(Cc1ccc3c(c1)OCO3)C(=O)[C@H](CC(=O)N1CCSCC1)C2

Source: PubChem

Only part of the results is shown. The share of hits here may be higher or lower than overall.
